Screening results (PubChem BioAssay)
eIF4H inh – inhibitors of RNA binding by human eIF4H | eIF4H fluorescence polarization binding assay | 0.94% of 290,000 active | inhibition, % at 35 µM | Q15056;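 active = 50% or more with normal probe brightness, or confirmed in later tests; about a fifth of its hits are not listed in these tables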;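 note: calls also rest on retests at 20 µM and on dose response follow-up; 0% = protein and probe with vehicle and 100% = probe without protein; strong numbers were not always called active; many hits fall short of the cut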
MT1-MMP act inh – blocks activation of human MT1-MMP. HT1080 RFP-PRO-GFP cells, GFP/RFP ratio fluorescence, overnight; percent of plate control window, DMSO zero. P50281. 0.061% of 360,000 active. GFP/RFP ratio change, % at 20 µM;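 active = GFP/RFP ratio change of at least 30% with cell ATP level not reduced by more than half and red fluorescence within 50% of control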; note: strong numbers were not always called active
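Assay system: HT1080 RFP-PRO-GFP cells | Dosing: 20 µM single dose, 1% DMSO | Incubation: Cells overnight before dosing, compound overnight, 37 °C, 5% CO2 | Evaluation: GFP/RFP fluorescence ratio | Control set: DMSO-only wells and HT1080 RFP-L50D-GFP cell wells as references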
Yeast UUG start – alters start codon recognition fidelity in yeast | S. cerevisiae UUG-firefly luciferase reporter, luminescence/redox ratio | 0.13% of 350,000 active | activity score, % at 18.7 µM;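 active = replicate mean at a twofold rise or more, about +100% in these data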;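 note: firefly luciferase made from a UUG start codon reports start codon fidelity; reporter light over untreated wells divided by growth signal over untreated wells; some hits fall short of that in this replicate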
CSC inhib – blocks cancer stem cells; cancer stem cell-like cells viability, luminescence; inhibition, % at 7.5 µM; 1.1% of 300,000 active;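 active = mean at 75% or more and at least half the replicates too; tested in HMLE shEcad cells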;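 note: 0% = median of negative and 100% = median of positive control wells; the first replicate is given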
HIV Env fusion – blocks HIV Env-driven cell-cell fusion; HeLa-JRFL Env/CEM21 cell fusion, luciferase; inhibition, % at 12.3 µM; AID 651610; 1.1% of 360,000 active;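 active = mean replicate inhibition score of at least 50 and every replicate individually at or above 50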;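 note: 0% = plate neutral controls and 100% = maraviroc near 300 nM; one replicate is shown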
Rce1 inh – inhibitors of yeast Ras-converting enzyme; Q03530; yeast membranes, quenched prenylated peptide cleavage fluorescence; calls only; 0.27% of 290,000 active; AID 2563;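 active = fall in fluorescence gain of 50% or more versus controls, with final raw signal at or below 3038400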;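 note: plate controls were neutral control wells for no effect and wells lacking membranes for full effect; tested at 10 µM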
Target sequence (Q03530 whole entry, looked up): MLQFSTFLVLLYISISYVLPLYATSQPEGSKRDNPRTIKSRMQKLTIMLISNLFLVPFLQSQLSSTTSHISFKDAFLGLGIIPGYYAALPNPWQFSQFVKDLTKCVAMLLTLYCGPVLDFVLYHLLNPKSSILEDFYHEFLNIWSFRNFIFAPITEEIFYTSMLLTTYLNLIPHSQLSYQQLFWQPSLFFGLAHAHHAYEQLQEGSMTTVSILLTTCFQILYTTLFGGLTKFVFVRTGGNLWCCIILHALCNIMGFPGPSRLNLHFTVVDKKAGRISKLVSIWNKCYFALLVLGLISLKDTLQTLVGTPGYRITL
PABP polyA inh – PABP-poly(A) binding inhibition; 1% of 290,000 active; PABP-poly(A) RNA binding, fluorescence polarization; inhibition, % at 35 µM; AID 2014;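 active = 50% or more with normal probe brightness, or confirmed in later tests; about a fifth of its hits are not listed in these tables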;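 note: calls also rest on retests at 20 µM and on dose response follow-up; controls were probe without protein and protein plus probe with vehicle; some compounds called inactive have numbers as strong as hits; many hits fall short of the cut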
Target sequence (P11940 whole entry, looked up): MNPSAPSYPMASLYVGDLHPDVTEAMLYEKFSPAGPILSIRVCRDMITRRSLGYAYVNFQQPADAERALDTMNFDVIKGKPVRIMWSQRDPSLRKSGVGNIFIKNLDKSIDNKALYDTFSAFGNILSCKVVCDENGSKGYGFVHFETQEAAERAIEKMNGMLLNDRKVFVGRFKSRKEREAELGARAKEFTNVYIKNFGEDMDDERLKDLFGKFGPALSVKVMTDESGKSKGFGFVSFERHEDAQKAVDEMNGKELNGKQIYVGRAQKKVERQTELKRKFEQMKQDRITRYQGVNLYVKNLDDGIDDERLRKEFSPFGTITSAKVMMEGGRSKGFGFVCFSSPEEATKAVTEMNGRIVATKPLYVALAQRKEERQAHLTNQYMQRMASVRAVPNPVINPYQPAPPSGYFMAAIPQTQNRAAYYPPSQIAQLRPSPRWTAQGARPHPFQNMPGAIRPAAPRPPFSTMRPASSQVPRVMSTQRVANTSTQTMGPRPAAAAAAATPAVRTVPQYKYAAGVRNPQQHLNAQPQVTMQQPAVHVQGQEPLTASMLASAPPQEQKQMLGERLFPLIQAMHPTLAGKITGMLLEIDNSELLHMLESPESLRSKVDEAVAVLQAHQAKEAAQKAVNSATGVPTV
MT1-MMP act inh RFP – further read-out of MT1-MMP act inh, marked with its call; RFP signal change, %; measured here: RFP expression control read;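 0 = vehicle wells; hits needed this value within 50% of zero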
Starred values were filed as active, the others as inactive; i = inactive; · = no result given; + = active, no number. Not all compounds are listed; count on the stated rates, not on these rows.

SMILES	eIF4H inh	MT1-MMP act inh	MT1-MMP act inh RFP	Yeast UUG start	CSC inhib	HIV Env fusion	Rce1 inh	PABP polyA inh
CN(C)S(=O)(=O)c1ccc(Cl)c(C(=O)Nc2nc3ccccc3[nH]2)c1	5	-1	0	-4	-8	1	i	2
Fc1cccc2sc(N3CCCC3)nc12	1	-1	-3	·	-5	-9	i	0
O=C(NCc1cccs1)c1noc2c1CCCCC2	-6	4	-1	-13	0	-49	i	-4
COc1ccc(NC(=O)CS(=O)(=O)c2cn(CC(=O)N(C(C)C)C(C)C)c3ccccc23)c(OC)c1	1	-3	-2	-23	-18	-35	i	-5
COc1cccc(C2Nc3ccccc3C(=O)N2O)c1O (configuration not stated)	-3	8	6	-10	-6	·	i	-5
CCOC(=O)C1(Cc2ccccc2C(F)(F)F)CCN(Cc2ccon2)CC1	4	0	-2	-11	4	25	i	-9
C#CCOCCOCCOCCNc1nc(N2CCN(C(=O)[C@H]([C@@H](C)CC)n3cc([C@@H](N)CC(C)C)nn3)CC2)nc(N2CCN(C(=O)[C@H](CCCCN)n3cc([C@@H](N)C(C)CC)nn3)CC2)n1 (some centres not stated)	35	-3	3	37	-11	·	i	46
CC1(C)Cc2nc(-c3ccccc3)nc(SCC(=O)N3CCOCC3)c2CO1	-10	5	5	-8	4	11	i	-16
COc1cccc2c1[C@@H]1CN(CCCCn3c(=O)[nH]c4c(sc5ncc(-c6ccccc6)nc54)c3=O)C[C@@H]1CO2	·	1	-9	10	14	15	·	·
OC(COCc1ccco1)CN1CCN(C(c2ccccc2)c2ccccc2)CC1 (configuration not stated)	12	1	1	-3	5	·	·	12
COc1ccccc1N1CCN(C2CCCN(C(=O)c3cccc(-c4ccco4)c3)C2)CC1 (configuration not stated)	6	2	-4	-1	8	17	i	-3
O=C(CN1CCOCC1)Nc1ccc(Br)cn1	10	9	3	-8	5	·	i	-6
COc1ccc(NC2CCCN(C(=O)c3ccc(OC)o3)C2)cc1 (configuration not stated)	-2	0	-3	-9	-14	5	i	-13
O=C(Nc1cc(Cl)ccc1Cl)c1noc2c1CCCC2	-7	5	6	-8	-11	6	i	17
OCCC1CN(Cc2ccon2)CCN1CCc1ccccc1 (configuration not stated)	3	1	-4	7	7	-5	i	-10
Nc1ccc(SCc2nc3cccc4c3n2CCC4)cc1	1	-1	-1	·	-14	-26	i	0
Cc1ccnc(SCC(=O)NC2CCCCCC2)n1	-6	2	2	4	-12	-11	i	-8
CC(NC(=O)COC(=O)c1ccc(Br)o1)c1ccccc1 (configuration not stated)	·	4	3	-15	·	-12	·	·
Cc1ccc(-c2cc(N)on2)cc1	-7	0	2	-5	-12	17	i	-5
Cc1c(C(=O)N(C)Cc2ccc(F)cc2)sc(=O)n1Cc1ccc(Cl)c(Cl)c1	·	4	-12	-7	·	24	·	·
CSc1nsc(N/N=C/c2ccccc2)c1C#N	-6	-5	-7	·	·	2	i	0
CSc1nc2ccc3nc(NC(=O)C4COc5ccccc5O4)sc3c2s1 (configuration not stated)	-22	-5	-14	-18	39	-14	i	-13
NC(c1ccccc1)c1csc(Nc2ccc(C(F)(F)F)cn2)n1 (configuration not stated)	·	-4	-6	-14	·	3	·	·
CCc1ccc(C(=O)Cn2cnc3cc([N+](=O)[O-])ccc3c2=O)cc1	-4	3	1	-15	-12	7	i	-8
COc1ccccc1C1N(c2cc(Cl)ccc2OC)C(=O)C2CCCN21 (configuration not stated)	-2	3	4	12	-4	7	i	-7
CSCCC(NC(=O)c1ccc(Cl)cc1Cl)C(=O)NNC(=O)c1ccncc1 (configuration not stated)	·	-2	4	-13	-6	4	·	·
CCOC(=O)c1cnc2c(c(C)nn2C)c1Oc1cc(Cl)cc(Cl)c1	-3	0	2	·	-2	0	i	9
COc1ccc(Cl)c2sc(N(Cc3cccnc3)C(C)=O)nc12	-5	0	0	-8	2	9	i	0
N#C/C(=C\c1ccc(OCc2cccc(C(=O)O)c2)cc1)C(=O)NCc1ccco1	20	0	0	·	24	-32	i	15
CNc1[nH]c(=O)[nH]c(=O)c1N=Nc1cc(Cl)ccc1Cl	·	2	1	-10	3	-3	i	·
O=C1c2nccnc2C(=O)N1c1ccc(C(F)(F)F)cc1	6	0	4	·	3	-2	i	-1
Cn1c(=O)c2c(ncn2CC(=O)N2CCCc3ccccc32)n(C)c1=O	11	9	4	3	-20	·	i	14
CCOc1ccc(S(=O)(=O)N2CCC(C(=O)NCCc3ccc(OC)c(OC)c3)CC2)cc1	0	2	-1	-1	-1	10	i	4
CCOc1ccc2nc(COC(=O)c3cccc([N+](=O)[O-])c3)c(C(C)=O)[n+]([O-])c2c1	-1	0	1	34	-13	2	i	-7
c1ccc(-n2nnnc2SCc2cn3cccnc3n2)cc1	-11	-2	1	-32	·	·	+	4
CCOC(=O)c1ccc(NC(=O)CCNc2c(N3CCCC3)c(=O)c2=O)cc1	7	2	-2	-19	·	·	i	4

Six compounds out of the list, arranged by heavy-atom count, low to high.
SMILES	eIF4H inh	MT1-MMP act inh	MT1-MMP act inh RFP	Yeast UUG start	CSC inhib	HIV Env fusion	Rce1 inh	PABP polyA inh
O=C1c2nccnc2C(=O)N1c1ccc(C(F)(F)F)cc1	6	0	4	·	3	-2	i	-1
CCOC(=O)c1cnc2c(c(C)nn2C)c1Oc1cc(Cl)cc(Cl)c1	-3	0	2	·	-2	0	i	9
COc1ccccc1C1N(c2cc(Cl)ccc2OC)C(=O)C2CCCN21 (configuration not stated)	-2	3	4	12	-4	7	i	-7
CCOC(=O)c1ccc(NC(=O)CCNc2c(N3CCCC3)c(=O)c2=O)cc1	7	2	-2	-19	·	·	i	4
CCOc1ccc2nc(COC(=O)c3cccc([N+](=O)[O-])c3)c(C(C)=O)[n+]([O-])c2c1	-1	0	1	34	-13	2	i	-7
CCOc1ccc(S(=O)(=O)N2CCC(C(=O)NCCc3ccc(OC)c(OC)c3)CC2)cc1	0	2	-1	-1	-1	10	i	4

Later entries:
SMILES	eIF4H inh	MT1-MMP act inh	MT1-MMP act inh RFP	Yeast UUG start	CSC inhib	HIV Env fusion	Rce1 inh	PABP polyA inh
CCOC(=O)N1CCN(c2c(NCc3ccccn3)c(=O)c2=O)CC1	2	-1	-1	-14	-11	16	i	10
COc1ccccc1-c1c(C)nn2c(N3CCC(C)CC3)cc(C)nc12	-6	-2	-9	·	20	27	i	-4
COc1ccc2nc3c(cc2c1)c(NC(=O)CC(C)C)nn3CC(C)C	0	-3	-9	-13	-4	-60	i	-4
O=S(=O)(c1cnc(Cl)c(Cl)c1)N1CCN(c2ncccn2)CC1	-9	3	5	·	7	2	i	9
C=CCSc1nc2c(c(=O)[nH]c(=O)n2C)n1C(C)C	2	3	6	-18	-9	·	i	2
CCOC(=O)Cn1nc(-c2ccc(F)cc2)cc(Cc2ccccc2)c1=O	1	2	4	-9	-9	·	i	7
COc1ccc2[nH]cc(CCNC(=O)Nc3ccccc3)c2c1	-3	3	-1	-14	4	-6	i	-8
COc1ccc(S(=O)(=O)NCC(=O)O)cc1C(=O)NC1CCCCC1	0	-1	2	18	-6	12	i	12
CCSc1nc(-c2ccccc2)c(C#N)c(=O)[nH]1	-6	2	5	-12	-3	-9	i	-2
Cc1cccc(CSc2ncccc2C(=O)O)c1	-2	4	7	-13	-3	·	i	-9
COc1ccc(C2CC(=O)N3CN(Cc4ccco4)CSC3=C2C#N)cc1 (configuration not stated)	-2	-5	2	-6	·	-57	i	2
CC(=O)N[C@@H](C)c1nc2ccccc2n1CCNC(=O)[C@H]1CCCN1c1nc(CN2CCCCC2)cs1	1	·	·	·	-15	·	i	3
Cc1ccc([N+](=O)[O-])cc1S(=O)(=O)N1CCCCC1C(=O)O (configuration not stated)	-4	-1	0	·	-9	12	i	-10
O=C(O)c1cc([N+](=O)[O-])cc2c1C=Cc1ccccc1O2	41	-2	4	·	7	8	i	32
O=C(O)c1cc(-c2ccccc2)nc2nc(N3CCCCC3)sc12	4	·	·	·	2	-45	i	8
Cc1cc(C(=O)NCc2ccccc2)no1	1	1	6	4	3	·	i	2
CC[C@]12c3[nH]c4cc(-c5ccco5)ccc4c3CCN1C(=O)[C@@H](CC(=O)NCc1ccc(OC)c(OC)c1)C[C@@H]2C(=O)N1CCN(C(=O)c2ccco2)CC1	·	4	0	-13	·	-41	·	·
Cn1cnnc1SCCNS(=O)(=O)c1ccccc1	-8	-2	6	-12	3	·	i	-17
COc1ccc(S(=O)(=O)Nc2ccccc2)cc1OC	9	3	7	-37	10	1	·	0
O=S(=O)(NC1CCSc2ccccc21)c1ccc(Cl)nc1 (configuration not stated)	7	-1	2	-9	-5	14	i	0
Cc1cc(C)c2cc(CN(Cc3nnnn3C3CCCCC3)CC3CCCO3)c(=O)[nH]c2c1 (configuration not stated)	-3	-1	0	15	-18	·	i	-8
O=C(CSc1ccc2nnc(-c3ccccn3)n2n1)Nc1ccc(F)cc1	-1	2	-1	-26	0	-5	i	16
Cc1ccc(C(=O)N/C(=C/C=C/c2ccccc2)C(=O)NCc2ccco2)cc1	-9	-1	-5	-7	-10	·	i	-1
CC(NC(=O)Nc1ccc(Cl)c(Cl)c1)C(c1ccccc1)N1CCOCC1 (configuration not stated)	-19	-8	-16	·	24	-24	i	12

Reformatted: two of the compounds above.
compound,eIF4H inh,MT1-MMP act inh,MT1-MMP act inh RFP,Yeast UUG start,CSC inhib,HIV Env fusion,Rce1 inh,PABP polyA inh
CNc1[nH]c(=O)[nH]c(=O)c1N=Nc1cc(Cl)ccc1Cl,·,2,1,-10,3,-3,i,·
O=C1c2nccnc2C(=O)N1c1ccc(C(F)(F)F)cc1,6,0,4,·,3,-2,i,-1

Further entries
SMILES	eIF4H inh	MT1-MMP act inh	MT1-MMP act inh RFP	Yeast UUG start	CSC inhib	HIV Env fusion	Rce1 inh	PABP polyA inh
CCOC(=O)N/C(N)=N/c1nc2ccccc2s1	-3	4	3	-12	-4	-307	i	-10
CCN1C(=O)/C(=C/N(C)c2ccccc2)OC1=S	6	-8	0	-7	6	·	i	18
Cc1nc2cc(NS(=O)(=O)c3c(C)c(C)cc(C)c3C)ccc2s1	-9	-3	-13	0	5	·	i	1
c1ccc(-c2ccc3nncn3c2)cc1	·	-1	3	-22	·	-114	·	·
COC(=O)c1cc(OC)nc(OC)c1	4	-3	-3	·	9	0	i	-5
O=C(C[n+]1ccc(-c2nnc3n2CCC3)cc1)c1ccc(Cl)cc1	-1	2	8	·	-11	-91	i	-8
O=C1CCC(CCC(=O)N2CCCC(C(=O)c3cccc(C(F)(F)F)c3)C2)=NN1 (configuration not stated)	0	1	-1	·	-3	-4	i	-5
Cc1nc2scc(-c3cccs3)c2c(=O)[nH]1	1	4	1	-4	7	-200	i	10
Cc1cc(C(=O)N(NC(=O)C(C)C)c2ccccc2)cs1	-14	2	1	2	-14	4	i	1
COc1ccc(-n2ccnc2SCC(=O)NCc2ccc3c(c2)OCO3)cc1	4	-1	0	-17	-1	·	i	4
COn1c(=S)[nH]c2ccccc2c1=O	-7	-2	5	-7	-18	-1	·	10
O=C(Nc1ccccc1C(=O)N1CCCCC1)c1cccc(S(=O)(=O)N2CCOCC2)c1	4	3	5	·	-2	·	i	2
CN(CCOc1ccc(Cl)cc1)CC(=O)Nc1ccc(OC(F)F)cc1	2	6	5	-10	5	18	i	-4
COc1cc(OC)cc(-c2nc(-c3ccccc3OC)no2)c1	-4	-1	1	-12	-7	1	i	1
Cc1cc(C)cc(NC(=O)N2CCCN(c3c(Cl)cncc3Cl)CC2)c1	-2	-3	-3	·	-8	-2	i	1
O=c1[nH]c(SCc2ccccc2)nc2[nH]ncc12	0	4	1	-11	7	2	i	10
O=C(Nc1nnc(-c2ccc3c(c2)CCCC3)o1)c1c(F)cccc1F	14	5	7	·	22	-19	i	-7
CNC(=S)N(C1=NCC(c2ccc([N+](=O)[O-])cc2)S1)c1ccccc1 (configuration not stated)	-13	3	-2	-9	13	-9	i	-6
O=C(Nc1ccccc1F)c1cc(Cl)sc1Cl	-1	-1	1	-6	-1	-38	i	-16
